# Yeast UUG start – alters start codon recognition fidelity in yeast. activity score, % at 18.7 µM. S. cerevisiae UUG-firefly luciferase reporter, luminescence/redox ratio. 350,000 compounds, 0.13% hits;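 active means replicate mean at a twofold rise or more, about +100% in these data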;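 further: firefly luciferase made from a UUG start codon reports start codon fidelity; reporter light over untreated wells divided by growth signal over untreated wells; some hits fall short of that in this replicate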
# PABP polyA inh – blocks human PABP binding to poly(A) RNA | P11940 | fluorescence polarization | inhibition, % at 35 µM | 290,000 compounds, 1% hits | AID 2014;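 active means 50% or more with normal probe brightness, or confirmed in later tests; about a fifth of its hits are not listed in these tables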;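 further: calls also rest on retests at 20 µM and on dose response follow-up; controls were probe without protein and protein plus probe with vehicle; some compounds called inactive have numbers as strong as hits; many hits fall short of the cut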
# Target sequence (P11940 whole entry, looked up): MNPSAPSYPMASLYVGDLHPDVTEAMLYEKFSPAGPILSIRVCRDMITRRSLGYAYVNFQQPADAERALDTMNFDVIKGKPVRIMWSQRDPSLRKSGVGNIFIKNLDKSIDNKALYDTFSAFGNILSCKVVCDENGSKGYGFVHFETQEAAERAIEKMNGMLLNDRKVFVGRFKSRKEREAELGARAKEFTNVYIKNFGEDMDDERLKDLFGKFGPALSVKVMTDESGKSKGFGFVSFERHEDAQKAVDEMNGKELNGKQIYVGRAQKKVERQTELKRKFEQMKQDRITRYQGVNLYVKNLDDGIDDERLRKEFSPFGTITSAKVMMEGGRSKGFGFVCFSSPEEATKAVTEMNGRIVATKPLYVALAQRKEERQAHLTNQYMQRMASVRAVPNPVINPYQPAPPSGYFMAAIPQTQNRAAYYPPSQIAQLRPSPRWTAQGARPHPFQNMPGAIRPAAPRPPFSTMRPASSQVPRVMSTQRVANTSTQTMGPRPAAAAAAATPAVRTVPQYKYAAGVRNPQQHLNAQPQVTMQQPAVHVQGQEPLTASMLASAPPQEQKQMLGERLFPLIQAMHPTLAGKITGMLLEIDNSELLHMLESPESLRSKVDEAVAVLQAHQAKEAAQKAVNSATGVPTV
# CSC inhib – blocks cancer stem cells | cancer stem cell-like cells viability, luminescence | inhibition, % at 7.5 µM | 300,000 compounds, 1.1% hits;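 active means mean at 75% or more and at least half the replicates too; tested in HMLE shEcad cells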;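 further: 0% = median of negative and 100% = median of positive control wells; the first replicate is given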
# Rce1 inh – inhibitors of yeast Ras-converting enzyme | yeast membranes, quenched prenylated peptide cleavage fluorescence | calls only | 290,000 compounds, 0.27% hits | AID 2563;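 active means fall in fluorescence gain of 50% or more versus controls, with final raw signal at or below 3038400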;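 further: plate controls were neutral control wells for no effect and wells lacking membranes for full effect; tested at 10 µM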
# MT1-MMP act inh – inhibitors of human MT1-MMP activation; HT1080 RFP-PRO-GFP cells, GFP/RFP ratio fluorescence, overnight; percent of plate control window, DMSO zero; GFP/RFP ratio change, % at 20 µM; 360,000 compounds, 0.061% hits;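 active means GFP/RFP ratio change of at least 30% with cell ATP level not reduced by more than half and red fluorescence within 50% of control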; further: strong numbers were not always called active
#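 Material – HT1080 RFP-PRO-GFP cells · Control set – DMSO wells and RFP-L50D-GFP cells · Incubation – overnight cell settling, then overnight compound exposure, 37 °C, 5% CO2 · Compound dosing – single-point 20 µM compound, 1% DMSO · Read-out – GFP/RFP fluorescence ratio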
# Env fusion inh – blocks HIV Env-driven cell-cell fusion. 360,000 compounds, 1.1% hits. inhibition, % at 12.3 µM. AID 651610. HeLa-JRFL Env/CEM21 cell fusion, luciferase;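 active means mean replicate inhibition score of at least 50 and every replicate individually at or above 50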;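 further: 0% = plate neutral controls and 100% = maraviroc near 300 nM; one replicate is shown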
# eIF4H inh – inhibitors of RNA binding by human eIF4H; Q15056; eIF4H fluorescence polarization binding assay; inhibition, % at 35 µM; 290,000 compounds, 0.94% hits; AID 2012;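 active means 50% or more with normal probe brightness, or confirmed in later tests; about a fifth of its hits are not listed in these tables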;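 further: calls also rest on retests at 20 µM and on dose response follow-up; 0% = protein and probe with vehicle and 100% = probe without protein; strong numbers were not always called active; many hits fall short of the cut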
# eIF4H inh retest – further read-out of eIF4H inh, marked with its call; inhibition, %; compound at 20 µM; confirmation average;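 mean of two retest wells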
# PABP polyA inh retest – recorded beside PABP polyA inh, whose call it bears; inhibition, %; compound at 20 µM; confirmation repeats;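 mean of two retest wells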
# MT1-MMP act inh RFP – also measured in MT1-MMP act inh; calls as there; RFP signal change, %; measured here: RFP expression control read;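 0 = vehicle wells; hits needed this value within 50% of zero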
# Starred values were filed as active, the others as inactive; i = inactive; nt = no result given; & = joins results of further samples.
SMILES,Yeast UUG start,PABP polyA inh,CSC inhib,Rce1 inh,MT1-MMP act inh,MT1-MMP act inh RFP,Env fusion inh,eIF4H inh,others
Cc1nc(CN2CCN(C(=O)CCc3nnc(Cc4c[nH]c5ccccc45)o3)CC2)cs1,2,-4,13,i,-4,0,-19,9,
COc1ccc(Br)cc1S(=O)(=O)N1CCCc2ccccc21,-25,9,-6,i,1,3,7,12,
COc1ccccc1-n1nc(C(=O)O)c2ccccc2c1=O,-20,9,-10,i,4,5,nt,-4,
CCOC(=O)CNc1c(N2CCN(c3ccccn3)CC2)c(=O)c1=O,-12,1,-11,i,0,6,10,-9,
CCOc1cc(NC(=S)NCCOC)c(OCC)cc1NC(=O)c1cccs1,nt,-7,8,i,nt,nt,9,1,
Cc1csc(NC(=O)C2CCCCC2)n1,11,-11,-4,i,2,0,nt,-6,
O=C(O)Cc1ccc2oc(-c3cccnc3)nc2c1,-4,0,3,i,7,4,-11,-3,
CCCc1cc(=O)[nH]c(SCCN2C(=O)c3ccccc3C2=O)n1,nt,1,-6,i,-2,4,-4,2,
Cc1sc2nc(SCC(=O)O)[nH]c(=O)c2c1C,nt,-2,-16,i,-1,1,-6,-6,
C=CCOc1cccc(C(=O)Nc2ncn[nH]2)c1,-7,-17,-9,i,0,3,-11,-9,
CCCC[C@@H]1CNC(=O)C(=O)N1CCc1cc(C(F)(F)F)cc(C(F)(F)F)c1,14,-17,-15,i,4,3,11,-3,
Cc1nc2c(C#N)c[nH]n2c(=O)c1Cc1ccccc1,-12,-1,12,i,-3,-1,nt,3,
CC(Oc1ccc(Br)cc1)C(=O)NCCCN1CCCC1=O (configuration not stated),-3,nt,2,nt,4,2,0,nt,
CCOC(=O)/C=C/[C@H]1Cc2ccccc2CO1,-19,nt,12,nt,-1,1,0,nt,
COc1ccc(C(O)c2nc(-c3cnn(C)c3)cs2)cc1 (configuration not stated),-14,nt,nt,nt,0,-2,8,nt,
CN(C)c1ccnc(-n2cccc2/C=N/O)c1C#N,nt,-8,-8,nt,-2,2,-4,14,
CC(=O)/C=N/Nc1ccccc1,-14,-4,1,i,-2,1,-48,-6,
O=C(c1ccccc1)N1CCN(C(=O)c2ccncc2)CC1,-16,nt,-9,i,-1,6,-7,nt,
O=C(CN1CCN(c2ncc(C(F)(F)F)cc2Cl)CC1)N1CCN(c2ncc(C(F)(F)F)cc2Cl)CC1,-8,12,3,i,-17,-28,95*,-3,
O=C(CNC(=O)c1ccco1)N/N=C/c1ccc(O)c([N+](=O)[O-])c1,-19,32,0,i,3,6,-2,-4,
CCCN1CCC(NC(=O)Nc2ccc([N+](=O)[O-])cc2)CC1,-11,1,-2,nt,10,6,-3,4,
O=C(Nc1ccc(Cl)cc1F)C1CC1,nt,-6,-9,i,-1,0,-1,4,
C#CC1(N2CCCCC2)CCCCC1,6,nt,nt,nt,1,1,15,nt,
c1ccc(COc2ccccc2CNCc2cccnc2)cc1,-7,11,2,i,4,1,nt,4,
CCOc1ccc(NC(=O)Cn2cc(C(=O)C3CC3)c3ccccc32)cc1,1,-5,2,i,0,1,0,-5,
CCN(CC)c1ccc(C(=S)NC2CCCCC2)cc1,-32,6,47,i,-2,-6,-19,0,
Cc1oc2c(c1C(=O)NC(Cc1c[nH]c3ccccc13)C(=O)O)CCCC2 (configuration not stated),8,2,-12,i,4,4,-40,2,
COc1cc(NC(=O)CCS(=O)(=O)c2ccc3c(c2)oc(=O)n3C)cc(OC)c1OC,-20,-4,-2,i,-2,2,4,4,
CC(C)(C)OC(=O)CNC(=O)c1[nH]cnc1C(=O)N[C@@H](CCCCNC(=O)OC(C)(C)C)C(=O)OC(C)(C)C,5,-5,-14,i,-7,-5,-15,-1,
COc1cc(NC(=O)C2CCCN(S(=O)(=O)c3ccc4[nH]c(=O)ccc4c3)C2)cc(OC)c1 (configuration not stated),-18,-3,-11,i,-1,-1,-3,-4,
CC(=O)Nc1ccc(C(=O)N2CCCCC2c2cc(C(=O)Nc3ccccc3)no2)cc1 (configuration not stated),-1,nt,nt,nt,-1,3,7,nt,
CC(=O)c1ccc(Oc2cc(C)nc(NCc3ccccc3)n2)cc1,-16,1,-1,i,-8,-24,nt,7,
CN(Cc1ncc[nH]1)C(=O)c1cc(COc2c(F)cccc2F)on1,nt,2,-13,i,-1,3,-3,0,
CC(=O)Nc1nc(C)c(-c2csc(Nc3ccccn3)n2)s1,nt,1&4,25&-13,i,-1&-6,-8&-7,5&-18,-8&-2,
O=c1c2cc(Cl)ccc2nc(-c2ccccc2Cl)n1O,nt,-3,7,i,-3,2,9,2,
CC1(C(=O)N2CC3(CC(c4cccc(NC(=O)COc5ccc(Cl)cc5)c4)=NO3)C[C@@H]2C(N)=O)CC1 (some centres not stated),0,18,5,i,3,-5,-354,-1,
O=c1oc2ccccc2c(NCc2ccc(Cl)cc2)c1[N+](=O)[O-],-6,9,29,i,3,-4,-4,3,
COc1cc2oc(=O)cc(-c3ccc(-c4ccc(N(C)C)cc4)cc3)c2c(OC)c1OC,-8,nt,nt,nt,-12,-15,22,nt,
CCc1cc(=O)[nH]c(SCc2cccc3ccccc23)n1,-7,0,-17,i,20,11,nt,1,
Nc1cc([N+](=O)[O-])cc2oc(-c3ccccc3)cc12,-17,1,10,i,-27,5,-33,-4,
N=c1c2ccccc2nnn1-c1ccc(C(F)(F)F)cc1,nt,3,3,i,2,-6,4,0,
CC(=O)Nc1ccc(C(=O)Nc2ccc3c(c2)OCO3)cc1,10,-2,-3,i,2,5,-44,-8,
COc1ccc(NC(C)=O)cc1NC(C)C(=O)Nc1cccc(S(=O)(=O)N2CCOCC2)c1 (configuration not stated),2,nt,nt,nt,1,1,-3,nt,
COc1ccc2cc(C3=CCCCC3)ncc2c1,-32,nt,19,nt,-5,4,-214,nt,
N/C(Cc1cccs1)=N\OC(=O)COc1ccc(Cl)cc1Cl,-19,-9,3,i,1,1,nt,-13,
OCc1ccccc1CN1CCCCCC1,nt,nt,-1,i,-4,-1,5,nt,
COc1cc2sc(NC(=O)c3ccco3)nc2cc1Cl,-15,-4,21,i,6,2,-77,-5,
Clc1ccc(/C=N/N2CCCCC2)cc1,nt,-13,23,i,-2,-2,-16,-13,
CC(C)OC(=O)C[N+](C)(C)CCN1C(=O)C2C(c3ccccc3)C=CC(c3ccccc3)C2C1=O (configuration not stated),nt,-1,-5,i,-2,5,0,-2,
CC(C(=O)NC(C)(C)C)N(C(=O)CS(=O)CC(=O)Nc1ccc(F)cc1)c1ccccc1F (configuration not stated),nt,-6,-4,i,-3,1,14,-8,

# (next part)
SMILES,Yeast UUG start,PABP polyA inh,CSC inhib,Rce1 inh,MT1-MMP act inh,MT1-MMP act inh RFP,Env fusion inh,eIF4H inh,others
CCOc1ccc(N(CC(=O)NCCOc2ccccc2OC)S(=O)(=O)c2ccccc2)cc1,0,-4,2,i,-4,-5,0,-4,
O=c1oc2ccc(C#CC3(O)CCCCC3)cc2cc1-n1cc(-c2ccsc2)nn1,-12,nt,-12,nt,4,3,-10,nt,
COc1ccc2nc(N3CCC(C)CC3)c(C#N)cc2c1,-14,4,1,i,-8,-2,-106,43,
Oc1ccc(-c2[nH]ncc2-c2cccc3cccnc23)c(O)c1,-6,4,1,i,4,-15,40,-4,
CCCCCCCC(=O)NNC(=O)CC(=O)Nc1ccccc1C(=O)O,-10,3,20,i,1,3,nt,-18,
O=C(Nc1ccccc1)C1C(c2ccccc2)C1(Cl)Cl (configuration not stated),-2,19,-4,i,3,-4,-10,-5,
CC(Sc1nncs1)C(=O)Nc1ccc(S(=O)(=O)Nc2ncccn2)cc1 (configuration not stated),-1,nt,-29,nt,14,-4,nt,nt,
CC(C)(Oc1ccc(Cl)cc1)C(=O)NNC(=O)c1ccc(Br)o1,-10,4,-7,i,-10,1,-12,-1,
O=C(Nc1ccc2ccccc2n1)c1ccccc1Br,-24,4,-3,nt,-1,-1,-89,2,
COc1cccc(CN(C)C(=O)c2ccc(COc3ccc(Cl)cc3)cc2)c1OC,-2,6,68,i,0,-7,-5,-2,
COC(=O)c1ccc(NC(=O)c2ccc[n+]([O-])c2)cc1,-11,-9,6,i,-1,0,-13,3,
CCOCCCNC(=O)CNC(=S)N(Cc1ccccc1F)C1CCCCC1,-18,0,-9,i,0,-1,30,-2,
COC(=O)c1ccc(/C=N/OCC(=O)Nc2cc(F)ccc2F)cc1,-14,6,9,i,0,-1,0,-1,
CCC(Cc1ccccc1)NC(=O)/C=C/c1ccco1 (configuration not stated),-5,-1,-16,i,0,4,12,10,
COc1cc(/C=C2\SC(=S)N(NC(C)=O)C2=O)ccc1OC(=O)c1ccco1,nt,nt,-15,nt,1,49,-7,nt,
C=CCNc1nc(-c2ccc([N+](=O)[O-])cc2)cs1,nt,6,1,i,9,-12,-82,4,
O=C(OCc1cccc(C(F)(F)F)c1)c1cc([N+](=O)[O-])ccc1N1CCOCC1,-19,nt,-8,i,-1,-6,nt,nt,
O=S(=O)(O)c1cc2onnc2c2ccccc12,-12,nt,nt,nt,5,6,20,nt,
Cc1[nH]c(C)c(S(=O)(=O)N2CCN(c3ccc(Cl)cc3)CC2)c1C(=O)N1CCCC1,6,4,-15,i,-2,2,6,-12,
O=C(c1cc(-c2ccco2)on1)N1CCOCC1,-15,0,7,i,3,1,-19,-8,
CCCCNC(=O)NC(C(=O)OC)C12CC3CC(CC(C3)C1)C2 (configuration not stated),nt,10,nt,i,-3,-3,26,-6,
COc1cccc(CSc2nnc(-c3ccncc3)n2N)c1,-33,9,-10,i,-2,-2,-15,4,
O=C(NCc1ccccc1)C1=C[C@@H](c2ccccc2)C[C@@H](OCc2ccc(CO)cc2)O1,-6,-3,-12,i,-2,1,-31,-4,
C=CCSc1ncnc2c1oc1nc3c(cc12)COC(C)(C)C3,nt,-4,5,i,2,3,3,-3,
COc1ccc(-c2cn[nH]c2N)cc1,-11,-6,-11,i,-6,-2,nt,-2,
C=CCNC(=S)NNC(=O)c1ccc(=O)n(Cc2ccccc2)c1,nt,-4,-8,i,1,6,12,-4,
Cc1ccc(NC(=O)Nc2ccccc2C#N)c(Cl)c1,-12,1,1,i,0,2,-87,-8,
N#Cc1ccc(OCc2nnc(SCC(=O)c3ccccc3)n2-c2ccccc2)cc1,-3,9,7,i,-1,-13,nt,-4,
Cc1ccc(-c2csc3ncnc(Oc4cccc5ccc(C)nc45)c23)cc1,nt,1,nt,i,-14,-6,14,2,
Cc1onc(-c2c(F)cccc2Cl)c1C(=O)OCc1cnc(Cl)s1,1,-3,-9,i,-5,-3,0,-10,
CCOc1ccc(N2CC(=O)N/C2=N\c2nc(C)cc(C)n2)cc1,-27,8,15,i,-1,2,nt,-2,
O=c1[nH]c(Nc2ccc(F)cc2)cc2ccccc12,-83,70*,3,i,-23,2,-13,21,eIF4H inh retest=4;PABP polyA inh retest=61*
O=C(Nc1ccc2c(c1)OCO2)c1ccc(COc2ccc3c(c2)CCC3)o1,-11,1,86*,i,-2,4,nt,0,
COC(=O)c1cn(CC(=O)N2C(C)CCCC2C)c2ccccc12 (configuration not stated),-10,4,-8,i,2,-1,nt,1,

# Copied from the entries so far for reference:
SMILES,Yeast UUG start,PABP polyA inh,CSC inhib,Rce1 inh,MT1-MMP act inh,MT1-MMP act inh RFP,Env fusion inh,eIF4H inh,others
Cc1ccc(-c2csc3ncnc(Oc4cccc5ccc(C)nc45)c23)cc1,nt,1,nt,i,-14,-6,14,2,
Cc1onc(-c2c(F)cccc2Cl)c1C(=O)OCc1cnc(Cl)s1,1,-3,-9,i,-5,-3,0,-10,
CCOc1ccc(N2CC(=O)N/C2=N\c2nc(C)cc(C)n2)cc1,-27,8,15,i,-1,2,nt,-2,

# Screens deposited in PubChem by several laboratories.

# This is a subset. The share of hits here may be higher or lower than overall.
